GIRK2 act – activators of human GIRK2 potassium channels; G protein-activated inward rectifier potassium channel 2 (Homo sapiens), P48051; HEK293-GIRK2 thallium flux, Thallos fluorescence; calls only for hits at 25 µM; 63,000 compounds, 0.05% hits; AID 1259325, 2017;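 active = among the strongest 0.2% of first-round signals and kept after retests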;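 also: first round at about 10 µM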
Target sequence (P48051 whole entry, looked up): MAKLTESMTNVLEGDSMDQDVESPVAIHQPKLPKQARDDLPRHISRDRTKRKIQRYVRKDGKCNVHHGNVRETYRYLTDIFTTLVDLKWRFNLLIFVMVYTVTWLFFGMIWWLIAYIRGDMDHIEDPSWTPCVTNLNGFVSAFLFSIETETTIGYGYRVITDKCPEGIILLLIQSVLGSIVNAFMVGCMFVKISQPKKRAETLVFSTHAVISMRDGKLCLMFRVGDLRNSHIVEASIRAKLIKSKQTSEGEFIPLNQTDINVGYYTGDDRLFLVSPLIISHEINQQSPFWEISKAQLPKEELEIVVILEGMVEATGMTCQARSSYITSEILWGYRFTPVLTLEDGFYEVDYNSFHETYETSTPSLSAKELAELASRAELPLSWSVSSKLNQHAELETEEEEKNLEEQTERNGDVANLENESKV
Calls only; i = inactive. These rows are one share of the data, so the mix of outcomes need not match the whole.

compound,GIRK2 act
CC(=O)N[C@H]1[C@H](O[C@H]2CC[C@@]3(C)C(CC[C@]4(C)C3CC=C3C5CC(C)(C)CC[C@]5(C(=O)O)[C@H](O)C[C@]34C)C2(C)C)O[C@H](CO)[C@@H](O)[C@@H]1O (some centres not stated),i
COc1ccc2c(c1)c(=O)c(S(=O)(=O)c1ccc(C)cc1)cn2CC(=O)Nc1cccc(Cl)c1,i
COc1cccc(CNC(=O)Cn2c3ccc(F)cc3c(=O)n2C(C)(C)C)c1,i
COCCN1C(=S)N(c2ccccc2)C(=O)C1CC(=O)NCc1ccccc1 (configuration not stated),i
CCOc1ccc(-c2ccc(OCCNC(=O)CCCc3ccccc3)nn2)cc1,i
Cc1cccc(-c2noc(C3CCN(CC(=O)Nc4ccccc4C)CC3)n2)c1,i
O=C(Nc1ccccc1Cl)N1CCC(CSc2ccccn2)CC1,i
COc1cc(S(=O)(=O)N2CCOCC2)ccc1F,i
Cn1ccc(C(=O)Nc2nc(-c3cc(Cl)sc3Cl)cs2)n1,i
Cc1ccc(N2CN(Cc3ccccc3)S(=O)(=O)c3cccnc32)cc1,i
Cc1cc(-n2cc(C(=O)N3CCC(NC(=O)Cc4ccc(F)cc4)CC3)nn2)ccc1F,i
O=C(CCc1csc(NC(=O)c2cccs2)n1)NCc1cccnc1,i

compound,GIRK2 act
COCCNC(=O)c1ccc(Nc2nn3c(=O)c4ccccc4nc3s2)cc1,i
CCOc1ccc(-c2csc(-n3nc(C)cc3NC(=O)C(C)(C)C)n2)cc1,i
CCN(CCO)Cc1cc(=O)oc2c(C)c(C)ccc12,i
COCCOC(=O)c1c(C)n(C)c2ccc(OC(=O)c3ccccc3F)cc12,i
COc1cc(COCC2CCN(S(=O)(=O)c3cccnc3)CC2)cc(OC)c1,i
Cc1ccc(-n2ncc3c(=O)[nH]c(-n4nc(C)cc4NC(=O)c4ccc(Cl)cc4Cl)nc32)cc1,i
O=C(Nc1ccccc1F)N1CC(c2nc(-c3cccs3)no2)C1,i
CCCCCn1c(=O)c2ccccc2n(Cc2nc(-c3cc(OC)c(OC)c(OC)c3)no2)c1=O,i
COc1ccc(CNC(=O)CS(=O)(=O)c2cccs2)cc1,i
Cn1cc(C(=O)NCCN2CCCCC2)c(S(=O)(=O)N2CCN(c3ccc(Cl)cc3)CC2)n1,i
CC1(C)OCC2(CO1)CN(C(=O)/C=C/c1ccco1)C2,i
CCc1ccc(S(=O)(=O)Nc2cnc(Oc3ccccc3F)nc2)cc1,i

compound,GIRK2 act
O=C(NCC1(c2ccc(F)cc2)CCOCC1)C(=O)Nc1cccc(N2CCCC2=O)c1,i
COc1ccc(-c2cc3ccc(OC)cc3oc2=O)c(OC)c1,i
CC(C)(C)NC(=O)CSc1nc(-c2ccccc2)cc(C(F)(F)F)c1C#N,i
CCOC(=O)C(Oc1ccc2c(=O)c(-c3ccccc3OC)coc2c1)c1ccccc1 (configuration not stated),i
CCCS(=O)(=O)N1CCc2ccc(NC(=O)c3ccc(OC(F)(F)F)cc3)cc2C1,i
Fc1cccc(-c2noc(CSc3nccn3-c3ccccc3)n2)c1,i
O=C(c1cc(-c2ccco2)on1)N1CCC2(CC1)OCCS2,i
O=C(/C=C/c1ccccc1Cl)N1CCC(c2nnc(C3CC3)o2)CC1,i
COc1ccc(NC(=O)C2=Cc3cc(Br)ccc3OC=C2)c(OC)c1,i
CCn1c(=O)c2c(nc(N/N=C\c3ccc(OC)c(OC)c3)n2C)n(C)c1=O,i
CC(=O)c1ccc(NC(=O)CN2CCN(Cc3nc(C(C)(C)C)cs3)CC2)cc1,i
O=C1CC(c2nc3ccccc3n2Cc2ccc(F)cc2)CN1Cc1ccccc1 (configuration not stated),i

compound,GIRK2 act
Cc1ccc(S(=O)(=O)c2nnn(-c3cc(Cl)ccc3C)c2C)cc1,i
N#Cc1ccccc1NC(=O)CSc1nccn1-c1cccc(C(=O)NCc2ccc(F)cc2)c1,i
O=C(Cn1nnn(-c2ccc(NC(=O)C(=O)c3c[nH]c4ccccc34)cc2)c1=O)NC1CC1,i
CCOC(=O)N1CCC(NC(=O)c2cc3n(n2)CCCO3)CC1,i
Cc1cc(O)cc2oc3cc(O)cc(O)c3c(=O)c12,i
O=C1c2oc3ccccc3c(=O)c2C(c2ccccc2)N1CCN1CCOCC1 (configuration not stated),i
CCCn1c(=O)c2sc(N3CCCC3)nc2n(CC(=O)NCc2ccccc2Cl)c1=O,i
O=c1ccc(-c2nc(-c3ccc(Cl)cc3)no2)cn1Cc1cccc(F)c1,i
COCCCn1c(C(=O)NCCCN2CCOCC2)cc2c(=O)n3ccccc3nc21,i
CN(C)C(=O)Cn1cc(-c2ccc(F)cc2)cn1,i
COc1ccc(CCC(=O)Nc2cc(-c3cccs3)nn2-c2nc(-c3ccccc3)cc(=O)[nH]2)cc1,i
Nc1c(C(=O)Nc2ccccc2)c2nc3ccccc3nc2n1/N=C\c1cccnc1,i

compound,GIRK2 act
Cc1nnc(C2CCCN(C(=O)c3ccc(F)c(F)c3)C2)s1 (configuration not stated),i
CS(=O)(=O)Nc1ccc(-c2nc3ccccc3[nH]2)cc1,i
Cc1cc(=O)c2cc(C(=O)NN)ccc2[nH]1,i
CCOc1ccc(S(=O)(=O)Nc2ccc(-n3nnc(C(N)=O)n3)cc2)cc1,i
O=C(Cn1cc(S(=O)(=O)N2CCOCC2)ccc1=O)Nc1cccc(Cl)c1,i
COc1ccc(N(C)S(=O)(=O)c2cc(N(C)S(=O)(=O)c3ccc(C)cc3)c(C)cc2C)cc1,i
COc1cccc(C2c3c(oc4ccccc4c3=O)C(=O)N2CCN(C)C)c1OC (configuration not stated),i
CCOCCn1c(N2CCN(CC(=O)OCc3ccccc3)CC2)nc2c1c(=O)[nH]c(=O)n2C,i
CC(C)n1nc2c(S(=O)(=O)N3CCCCC3)cccn2c1=O,i
CCSc1ccccc1C(=O)NCCc1csc(-n2nc(C)cc2C)n1,i
COc1cc(Cl)c(C)cc1NC(=O)Cn1nc2c(Oc3ccc(C)cc3)nccn2c1=O,i
Cc1ccc2nc(N(CCN(C)C)C(=O)c3ccn(C)n3)sc2c1,i

compound,GIRK2 act
CC1=C(C(=O)Nc2ccccc2)C(c2ccccc2)n2c(s/c(=C/c3cnn(C)c3C)c2=O)=N1 (configuration not stated),i
O=C(NCCC1=CCCCC1)C1CCN(C(=O)NCc2cccs2)CC1,i
O=c1[nH]c2nc(NCc3cc(F)ccc3F)ncc2c(=O)n1C1CCCC1,i
COc1ccc(CCNC(=O)c2cncc(NS(=O)(=O)c3ccc(C)cc3)c2)cc1,i
COc1cccc(NC(=O)Nc2ccccc2NC(=O)c2ccccc2C(F)(F)F)c1,i
CCOc1ccc(N2C(=O)/C(=C/c3ccc(OC)c(OC)c3)SC2=S)cc1,i
COc1ccc(-c2c(C)c3ccc(OC(C)=O)c(C)c3oc2=O)cc1,i
NS(=O)(=O)c1ccc(CCNC(=O)CCCn2c(=S)[nH]c3cc4c(cc3c2=O)OCO4)cc1,i
CCc1[nH]nc(S(=O)(=O)NCCc2c[nH]c3ccccc23)c1C(=O)OC,i
N#CCSc1ncc(-c2cccc([N+](=O)[O-])c2)n1-c1ccc(F)cc1,i
O=S(=O)(NCC1CCN(Cc2ccccc2)CC1)C1CC1,i
COc1ccc(-c2cc3c(=O)n(CC(=O)Nc4ccc(Br)c(C)c4)ccn3n2)cc1,i

Compounds shown so far containing two or more sulfur atoms:
compound,GIRK2 act
Cn1ccc(C(=O)Nc2nc(-c3cc(Cl)sc3Cl)cs2)n1,i
O=C(CCc1csc(NC(=O)c2cccs2)n1)NCc1cccnc1,i
COc1ccc(CNC(=O)CS(=O)(=O)c2cccs2)cc1,i
COc1ccc(N(C)S(=O)(=O)c2cc(N(C)S(=O)(=O)c3ccc(C)cc3)c(C)cc2C)cc1,i
CCSc1ccccc1C(=O)NCCc1csc(-n2nc(C)cc2C)n1,i
CCOc1ccc(N2C(=O)/C(=C/c3ccc(OC)c(OC)c3)SC2=S)cc1,i
NS(=O)(=O)c1ccc(CCNC(=O)CCCn2c(=S)[nH]c3cc4c(cc3c2=O)OCO4)cc1,i

Next part
compound,GIRK2 act
O=S(=O)(C1CCCCC1)N1CC(Oc2nc3ccccc3s2)C1,i
COc1ccccc1NC(=O)c1csc2nc(-c3ccc(F)cc3)cn12,i
Cc1ccc(C)c(N2CCN(C(=O)CCn3c(=O)[nH]c4ccccc4c3=O)CC2)c1,i
COc1cccc(NC(=O)Cn2ccn3nc(-c4ccccc4)cc3c2=O)c1,i
Cc1ccc(NC(=O)N2CCCSCC2CN2CCCC2)cc1C (configuration not stated),i
O=C(NCc1ccc(F)cc1F)C1CCN(c2cc(Oc3ccccc3)ncn2)CC1,i
CCN(CCCNC(=O)Cn1cnc2c([nH]c3cc(OC)c(OC)cc32)c1=O)c1cccc(C)c1,i
CC(C)N1C(=O)C2(OCCCO2)c2cc(Br)ccc21,i
O=C(c1cc(-c2ccc(F)cc2)c[nH]1)N1CCN(Cc2ccc3c(c2)OCO3)CC1,i
COC(=O)[C@]12C(=O)C(C)=C(O)[C@@]1(C)C(C)=CC1[C@@]34CC[C@@H](OC(C)=O)C(C)(C)C3C(C[C@]12C)OC4=O (some centres not stated),i
Cn1cc(C2=C(c3cn(C)c4cc(Cl)ccc34)C(=O)NC2=O)c2ccccc21,i
CC(CC(=O)N1CCC(Cc2ccccc2)CC1)CC1=NS(=O)(=O)c2ccccc2N1 (configuration not stated),i

compound,GIRK2 act
O=c1c2scc(-c3ccc(Cl)cc3)c2ncn1Cc1ccccc1F,i
COC(=O)N1CCc2ccccc2C1C(=O)N1CCN(c2ccc(C(F)(F)F)cn2)CC1 (configuration not stated),i
O=C(/C=C/c1cccs1)Nc1ccc2oc(=O)ccc2c1,i
COc1cccc(N2C(=O)C3N=NN(c4ccc(Br)c(C)c4)C3C2=O)c1 (configuration not stated),i
O=C(Nc1ccc(F)cc1)OC1CCCC(NC(=O)c2ccc(Br)o2)C1 (configuration not stated),i
O=C(NCCOc1ccc2c(c1)OCO2)c1ccc(C(F)(F)F)cc1,i
CCOc1cc(C(=O)Nc2ccc3c(c2)CCC(=O)N3CC)cc(OCC)c1OCC,i
Cc1ccc(N2C(=O)C3N=NN(Cc4nc(-c5cccc(Br)c5)no4)C3C2=O)cc1F (configuration not stated),i
CC(=O)c1ccc(NC(=O)CSc2cc(C)nc3c(-c4ccccc4)cnn23)cc1,i
COc1ccc(C(=O)Nc2ccc3c(c2)N(C(C)=O)CCC3)cc1OC,i
COC(=O)Cn1c(=O)c2c(nc3n2CCN3c2cccc(C)c2C)n(C)c1=O,i
COc1cc(/C=C/C(=O)c2cccc(O)c2)cc2c1OCCO2,i

compound,GIRK2 act
CCC(Sc1ncc(S(=O)(=O)c2ccccc2)c(=O)[nH]1)C(=O)Nc1cc(Cl)ccc1C (configuration not stated),i
CC(C)(C)c1cc(NC(=O)c2ccc3nsnc3c2)on1,i
CC(C)(O)/C=C/C(=O)[C@](C)(O)[C@H]1[C@H](O)C[C@@]2(C)[C@@H]3CC=C4[C@@H](C=C(O[C@@H]5O[C@H](CO)[C@@H](O)[C@H](O)[C@H]5O)C(=O)C4(C)C)[C@]3(C)C(=O)C[C@]12C,i
O=C(CC1CCCCC1)N1CCN(c2ncnc3c2nnn3-c2ccccc2)CC1,i
COc1cc2c(cc1OC)CN(C(=O)CSc1ccc3ccccc3n1)CC2,i
Cn1c(=O)c2c(nc(N3CCN(Cc4ccccc4)CC3)n2CC(O)COc2ccc(Cl)cc2)n(C)c1=O (configuration not stated),i
CC(C)(C)OC(=O)N1CCN(S(=O)(=O)c2[nH]ncc2C(=O)O)CC1,i
CCOC(=O)N1CCN(S(=O)(=O)c2cc(F)ccc2OC)CC1,i
CC(=O)Nc1ccc(NC(=O)CSc2nnc(C)c3cnn(-c4ccc(F)cc4)c23)cc1,i
CCOC(=O)c1ccc(NC(=O)c2ccc(-c3ccc(OC)cc3[N+](=O)[O-])o2)cc1,i
Cn1cc(C(=O)N2CCc3nc(NC(=O)C4CCCO4)sc3C2)nn1 (configuration not stated),i
CCc1ccc(S(=O)(=O)N2CCN(c3ncncc3C)CC2)s1,i

compound,GIRK2 act
Cc1cccc(C)c1NC(=O)CSC1=NS(=O)(=O)c2ccccc2N1,i
CC(=O)c1sc(NC(=O)C2CCN(S(=O)(=O)c3cccs3)CC2)nc1-c1ccccc1,i
O=C(c1cc(C2CC2)on1)N1CC(c2nc(-c3cccs3)no2)C1,i
O=C(CCn1cnc2ccccc2c1=O)N1CCCC(c2nnc(C(F)(F)F)o2)C1 (configuration not stated),i
Cc1nccn1CC1CCN(C(=O)CSCc2ccccc2)CC1,i
CCCc1ccc(S(=O)(=O)NCCN2CCN(c3ccc(OC)cc3)CC2)cc1,i
O=C1N=C(O)CN1N=Cc1ccc(-c2ccc([N+](=O)[O-])cc2)o1,i
O=C(CCn1c(=O)oc2ccc(Cl)cc21)N1CCN(Cc2ccccc2)CC1,i
COC(=O)c1ccc(C(=O)NCC(C)(O)c2cccs2)cc1 (configuration not stated),i
COc1ccc(-c2ccc(C(=O)Nc3cccc(Cl)c3)o2)c([N+](=O)[O-])c1,i
Cc1cc(C)n(-c2nc(CCNC(=O)c3cncc(Br)c3)cs2)n1,i
COc1ccc(CCNC(=O)C(=O)Nc2cc(N3CCCS3(=O)=O)ccc2C)cc1,i

compound,GIRK2 act
Cc1cc(=O)n2c(-c3cccc(NC(=O)c4c(F)cccc4F)c3)csc2n1,i
COc1ccc(OS(=O)(=O)c2ccc(-c3csc(C)n3)s2)cc1,i
O=C(Cc1ccc(NC(=O)C2(c3cccs3)CCCC2)cc1)N1CCOCC1,i
CCOc1ccc(/C=C/C(=O)Nc2ccc(OC)cc2OC)cc1,i
COc1ccc(NC(=O)c2nnn(-c3ccc(C)cc3)n2)cc1Cl,i

Source: PubChem
